# Screening results from PubChem BioAssay.
# Mtb growth – M. tuberculosis H37Rv growth inhibitors, H37Rv strain (AID 1626) | 220,000 tested, 0.95% active | inhibition, % at 10 µM, or IC50 in µM where a hit was titrated | M. tuberculosis H37Rv growth inhibition; higher % means a stronger effect;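 active = confirmed in a dose series; inconclusive = inhibition above 80% but not taken into the dose series; inactive = below 80% or under 30% at every dose of the series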;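 note: bacteria incubated seven days before Alamar blue readout; 0% = bacteria only wells and 100% = bacteria with antibiotic wells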
# Mtb betalactam – beta-lactam sensitization of Mtb H37Rv | M. tuberculosis H37Rv growth with meropenem, percent inhibition; hits of this screen are not shown here | inhibition, % at 25 µM | 330,000 tested, 0.27% active;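 active = about 74% or more and at least 40 points above the plate without the antibiotic, then above 30% in a dose series; inconclusive = first-round hits that could not be retested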;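 note: growth measured after seven days incubation then overnight dye step; 0% = bacteria only wells and 100% = bacteria with antibiotic; twin plates without the antibiotic show which effects depend on it; some results filed as inactive read as strong as hits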
# YopH inh – YopH (Yersinia) phosphatase inhibition; fluorescence Ex485/Em525; inhibition, %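 (about 10 µM by stock and volumes)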; 140,000 tested, 0.16% active; AID 898;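 active = inhibition of 50% or more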;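 note: controls were vehicle for no effect and minimum signal wells for full effect; inactives centre near -20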
# RecA intein inh – blocks M. tuberculosis RecA intein splicing | P9WHJ3 | cell-free RecA intein splicing, fluorescence | inhibition, %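 (about 9 µM by stock and volumes)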 | 290,000 tested, 0.75% active | AID 2221; in the data active = inhibition above about 30%; inconclusive = no clear call, values can overlap the other calls;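 note: 0% = vehicle wells and 100% = reference inhibitor control wells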
# Target sequence (P9WHJ3 whole entry, looked up): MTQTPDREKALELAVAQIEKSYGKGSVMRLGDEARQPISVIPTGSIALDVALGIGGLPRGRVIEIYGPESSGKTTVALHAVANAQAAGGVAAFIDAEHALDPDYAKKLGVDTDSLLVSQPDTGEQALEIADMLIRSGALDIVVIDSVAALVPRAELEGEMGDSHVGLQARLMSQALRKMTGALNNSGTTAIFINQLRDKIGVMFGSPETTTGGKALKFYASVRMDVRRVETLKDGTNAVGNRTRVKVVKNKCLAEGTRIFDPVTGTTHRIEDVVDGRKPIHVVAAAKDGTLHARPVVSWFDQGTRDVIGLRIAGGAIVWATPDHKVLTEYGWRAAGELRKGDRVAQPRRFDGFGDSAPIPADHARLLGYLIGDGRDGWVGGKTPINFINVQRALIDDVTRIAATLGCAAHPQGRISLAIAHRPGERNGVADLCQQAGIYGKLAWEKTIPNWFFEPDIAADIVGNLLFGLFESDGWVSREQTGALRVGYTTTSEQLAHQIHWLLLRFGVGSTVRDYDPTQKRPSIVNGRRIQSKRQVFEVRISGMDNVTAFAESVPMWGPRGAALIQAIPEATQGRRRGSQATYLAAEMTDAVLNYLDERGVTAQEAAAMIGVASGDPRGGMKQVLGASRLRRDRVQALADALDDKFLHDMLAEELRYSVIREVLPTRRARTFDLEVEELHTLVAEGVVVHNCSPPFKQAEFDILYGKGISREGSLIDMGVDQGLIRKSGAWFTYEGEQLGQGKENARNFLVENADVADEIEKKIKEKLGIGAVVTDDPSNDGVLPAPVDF
# Arbovirus inh – blocks arbovirus infection; AID 1251; inhibition, % at 10 µM; 200,000 tested, 0.37% active; arbovirus infection cell-based antiviral screen;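 active = inhibition from about 30%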;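 note: bluetongue infection of BSR cells; cell survival read as ATP light after 72 h; 0% = infected wells without compound and 100% = uninfected wells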
# An asterisk follows results filed as active; ? = inconclusive; · = no result given. The list is partial (hit frequency here may not be typical).
# Start of the data: the first five entries (preview)
SMILES,Mtb growth,Mtb betalactam,YopH inh,RecA intein inh,Arbovirus inh
CCN(CC(=O)Nc1c(F)cccc1F)C(=O)/C=C/c1c(C)nn(-c2ccc(F)cc2)c1C,·,0,·,-3.1,·
CNC(=S)NNC(=O)c1cc(C(C)(C)C)nn1Cc1ccc(F)cc1,3%,-14,·,6.3,·
COc1cc(C(=O)Nc2ccc(S(=O)(=O)Nc3cc(C)on3)cc2)cc(OC)c1OC,-6%,88,-23,-0.5,-6
CC1(C)CCc2nc(SCc3ccccc3)c(C#N)cc2C1,2%,-8,5,3.7,-2
CC(C)(C)OC(=O)NCCCC[C@H](NC(=O)c1nc[nH]c1C(=O)NCc1ccccc1)C(=O)OC(C)(C)C,0%,-3,·,2.4,-12

# Main list (from the top)
SMILES,Mtb growth,Mtb betalactam,YopH inh,RecA intein inh,Arbovirus inh
CCN(CC(=O)Nc1c(F)cccc1F)C(=O)/C=C/c1c(C)nn(-c2ccc(F)cc2)c1C,·,0,·,-3.1,·
CNC(=S)NNC(=O)c1cc(C(C)(C)C)nn1Cc1ccc(F)cc1,3%,-14,·,6.3,·
COc1cc(C(=O)Nc2ccc(S(=O)(=O)Nc3cc(C)on3)cc2)cc(OC)c1OC,-6%,88,-23,-0.5,-6
CC1(C)CCc2nc(SCc3ccccc3)c(C#N)cc2C1,2%,-8,5,3.7,-2
CC(C)(C)OC(=O)NCCCC[C@H](NC(=O)c1nc[nH]c1C(=O)NCc1ccccc1)C(=O)OC(C)(C)C,0%,-3,·,2.4,-12
COC(=O)c1ccc(NC2=C(Cl)C(=O)OC2OC(=O)c2ccccc2)cc1 (stereo not given),54%,76,·,30*,-11
Cc1cc(Br)c2nc3c(c(C(=O)O)c2c1)CCCCC3,3%,5,-45,0.0,-9
N#Cc1cc2cc3c(cc2nc1SCC(=O)N1CCOCC1)OCCO3,·,5,·,0.5,·
Cc1c(N=N/C(C(=O)Nc2ccccc2)=C(/O)c2ccccc2)c(=O)n(-c2ccccc2)n1C,14%,5,·,3.2,-9
N#C/C(=C\c1ccc([N+](=O)[O-])o1)C(=O)Nc1ccc(F)cc1,?,100,·,15,-31
COc1ccc(-c2cc(CCCC(=O)NCCc3ccc(OC)cc3OC)no2)cc1,3%,-3,-20,0.6,-8
CCOC(=O)C1=C(COC(=O)CNC(=O)c2ccccc2F)NC(=O)NC1C (stereo not given),·,-9,·,-0.1,·
Cc1cc(SCc2cccc(C(F)(F)F)c2)nc(=O)[nH]1,·,?,·,0.6,·
CCC(C(=O)NCc1ccco1)N(C(=O)CNS(=O)(=O)c1ccccc1)c1ccccc1C (stereo not given),-3%,-6,·,0.7,2
COc1cc2c(cc1OC)C(c1ccc(Br)cc1)NC(=O)C2 (stereo not given),·,-6,·,-0.4,·

# Reprinted from the part before: 5 compounds, followed by the next part.
SMILES,Mtb growth,Mtb betalactam,YopH inh,RecA intein inh,Arbovirus inh
COc1ccc(-c2cc(CCCC(=O)NCCc3ccc(OC)cc3OC)no2)cc1,3%,-3,-20,0.6,-8
CCOC(=O)C1=C(COC(=O)CNC(=O)c2ccccc2F)NC(=O)NC1C (stereo not given),·,-9,·,-0.1,·
Cc1cc(SCc2cccc(C(F)(F)F)c2)nc(=O)[nH]1,·,?,·,0.6,·
CCC(C(=O)NCc1ccco1)N(C(=O)CNS(=O)(=O)c1ccccc1)c1ccccc1C (stereo not given),-3%,-6,·,0.7,2
COc1cc2c(cc1OC)C(c1ccc(Br)cc1)NC(=O)C2 (stereo not given),·,-6,·,-0.4,·
CC1CCCC(C)N1C(=O)CNCc1ccc2c(c1)OCO2 (stereo not given),·,0,·,-3.6,·
COc1cccc(CNS(=O)(=O)c2cc3c4c(c2)CCN4C(=O)CC3)c1,·,-10,·,-0.3,·
N/C(Cn1cncn1)=N\NC(=O)c1ccc(Cl)cc1Cl,0%,4,·,-0.5,3
CCCn1c(=O)c(C(=O)NCCCc2ccccc2)c(O)c2ccccc21,·,-4,·,0.1,·
COc1cnc(-c2ccccn2)nc1Sc1ccccc1,2.7µM*,81,·,4.4,-30
CC(C)CN1C(=O)NC(NC(=O)c2ccco2)(C(F)(F)F)C1=O (stereo not given),-4%,-9,-21,-0.1,-1
FC(F)(Cl)c1nnc2ccc(Cl)nn12,?,100,·,-0.6,-1
C=CCN1C(=O)C(O)(CC(=O)c2c(C)n[nH]c2C)c2cc(Br)ccc21 (stereo not given),-10%,5,21,0.3,-6
CC(=O)Nc1cccc2c1C(=O)N(c1cccc(C)c1)C2=O,0%,-12,-18,-1.9,1
COc1ccc(S(=O)(=O)N2CCC(C(=O)Oc3ccc(C)cc3)CC2)cc1OC,·,54,·,2.2,·
NNC(=O)c1cnn(-c2ccccc2)c1C(F)(F)F,-3%,-3,·,0.6,4
CC(=O)c1cccc(CN2CCCC(CCC(=O)NCc3ccc(C)o3)C2)c1 (stereo not given),1%,-6,·,1.6,-4
O=C(c1cc(-c2ccc(Cl)cc2)on1)N1CCCC1,·,1,·,1.4,·
S=c1[nH]nc(COc2ccccc2)n1/N=C/c1ccc(Br)cc1,·,?,·,-2.0,·
Cc1cc(C(=O)NCc2cccs2)no1,-5%,1,-18,2.0,1
COc1cc(C(=O)Oc2cccc(/C=N/NC(=O)c3cccnc3)c2)cc(OC)c1OC,·,44,·,3.0,·
CC#CCN1c2ccccc2[C@]23C[C@@H](C(=O)OC)N(C(=O)NCCBr)C2=NC(C(=O)OC)=C(C(=O)OC)[C@H]13,-5%,-5,·,1.8,·
O=c1[nH]c(=O)c2nnc(N/N=C\c3ccc(O)cc3)nc2[nH]1,3%,-5,·,-2.7,4
COc1ccc(C2/C=C\CN(Cc3ccco3)CC(=O)N2Cc2ccc(F)cc2)cc1 (stereo not given),-9%,-5,·,1.2,·
CN(C)S(=O)(=O)c1ccc(=S)[nH]c1,3%,-4,·,-13,1
O=C(Nc1ccc([N+](=O)[O-])cc1)Nn1cnnc1,·,2,·,2.9,·
COc1ccc(OC)c(NC(=O)c2sc3nc(C)cc(C)c3c2N)c1,·,-2,·,-4.8,·
Cc1ccc(S(=O)(=O)N(C)CC(=O)OCC(=O)NC(=O)Nc2ccc3c(c2)OCCO3)cc1,78%,55,-16,-4.1,-2
CCOC(=O)C/C(=N\Nc1ncnc2ccccc12)c1ccccc1,·,5,·,5.6,·
COC(=O)Cn1c(=NC(=O)c2ccc(S(=O)(=O)N3CCOCC3)cc2)sc2cc(S(N)(=O)=O)ccc21,·,2,·,0.8,·
CCOc1ccc(NC(=O)CCC(=O)NNS(=O)(=O)c2ccccc2[N+](=O)[O-])cc1,?,11,·,-1.9,-6
CC(C)CC(NC(=O)C1CCC(C)CC1)C(=O)N1CCN(c2ccccn2)CC1 (stereo not given),8%,?,-42,0.5,-14
CCC(=O)N1CCCc2cc(S(=O)(=O)N3CCN(c4ccccc4F)CC3)ccc21,·,-3,-3,1.3,-15
Cc1ccc(CNC(=O)C2CCC(=O)N2Cc2ccc(F)cc2)cc1 (stereo not given),·,-2,·,3.3,·
CC(C)C[C@H](NC(=O)[C@@H](Cc1ccccc1)n1c(=O)[nH]c2ccccc2c1=O)C(=O)N[C@@H](Cc1ccccc1)C(=O)O,·,0,·,11,·
O=C(Cn1nc(-c2ccccc2)ccc1=O)NCc1ccc(F)cc1,-2%,10,·,-1.5,-6
COc1ccc(OC)c(NC(=O)N2CCCc3ccccc32)c1,·,1,·,1.1,·
O=C(Nc1ccc(S(=O)(=O)Nc2nccs2)cc1)/C(=C/c1ccccc1Cl)NC(=O)c1ccccc1,-4%,2,-39,9.6,-1
Cc1onc(-c2ccccc2)c1CNS(=O)(=O)c1cccc(Cl)c1,-8%,1,·,3.3,·
CCOC(=O)N/N=C\c1ccccc1OC/C=C/c1ccccc1,·,6,·,2.8,·
CCOc1ccc(OCCCCNC(C)(C)C)cc1,-4%,-1,·,1.0,-13
CSc1ccccc1C(=O)Nc1ccccc1C(=O)NC(C)C,-1%,5,·,1.1,2
CC(NC(=O)CNC(=O)C1O[C@@H]2OC(C)(C)O[C@@H]2[C@H]2OC(C)(C)O[C@@H]12)C(=O)O (stereo not given in full),3%,0,·,-4.1,3
N#CCN1CCC2(O)CCCCC2C1c1ccc2c(c1)OCO2 (stereo not given),-4%,4,·,-0.4,·
Cn1c(=O)[nH]c(=O)c2c1nc(NCCCn1ccnc1)n2Cc1ccc(F)cc1,-10%,-9,-19,1.5,-6
C=CCc1cccc2cc(C(=O)Nc3ccc(S(=O)(=O)Nc4nnc(CC)s4)cc3)c(=O)oc12,5%,11,75*,2.4,15
Cc1cc(SCc2cc(=O)n3ccsc3n2)nc2ccccc12,2%,-1,-23,0.1,9
Cc1ncsc1CCC(=O)N1CCCC(C(=O)c2ccc3c(c2)OCO3)C1 (stereo not given),0%,4,·,-4.3,3
O=S(=O)(c1cccc2nsnc12)N1CCN(Cc2ccccc2)CC1,·,-7,·,4.1,·
CCc1occc(=O)c1Oc1cc(NN2CCCCC2)c([N+](=O)[O-])cc1[N+](=O)[O-],·,11,·,1.8,·
Cc1nn(C)c(C(=O)N/N=C/c2ccccc2)c1[N+](=O)[O-],-7%,-5,-24,2.4,4
Cc1ccc(NC(=O)c2snnc2C)cc1Cl,-6%,-1,·,3.3,5
COC(=O)c1ccc2c(c1)S(=O)(=O)NC(=NCc1ccco1)S2,6%,14,-7,-0.4,5
CNC(=O)NC1CCCc2ccccc21 (stereo not given),2%,-8,-12,0.8,0
COc1cccc(OCc2ccc(C(=O)NCC3CCCO3)cc2)c1 (stereo not given),2%,-5,-25,-2.2,1
CC(=O)c1sc(NC(=O)CS(=O)(=O)c2ccccc2)nc1-c1ccccc1,·,-12,·,2.3,·
O=C(c1ccsc1)N1CCCC(N2CCN(c3cccc(C(F)(F)F)c3)CC2)C1 (stereo not given),·,-3,·,2.0,·
Cn1c(SCC(=O)N2CCc3ccccc32)nnc1-c1ccc(S(=O)(=O)N2CCCC2)cc1,3%,4,-19,-2.6,-2
O=C(c1ccc2nc3ccc(Cl)cc3c(=O)n2c1)N1CCOCC1,72%,?,-40,-61,5
O=C(NCc1ccc2c(c1)OCO2)c1ccc(COc2cccc(Cl)c2)o1,·,5,-20,16,5
COc1ccc(NC(=O)c2cc3c([nH]c4ccccc43)c(C)n2)cc1,13%,-1,-23,-0.8,6
COc1ccc(N2CCN(C(=O)CN3C(=O)COc4ccccc43)CC2)cc1,·,-4,·,2.3,·
COc1ccc(/C=N/Nc2nc(Nc3ccccc3)nc(N3CCCC3)n2)cc1[N+](=O)[O-],5%,-6,·,3.1,-23
Cn1cccc1C(C#N)c1ccccc1C#N (stereo not given),-10%,-1,·,7.9,-9
O=C(Nc1cccc(Oc2ccc3c(c2)C(=O)NC3=O)c1)c1cccs1,-1%,14,-16,0.6,3

# (more compounds)
SMILES,Mtb growth,Mtb betalactam,YopH inh,RecA intein inh,Arbovirus inh
CCNC(=O)C1CCCN1C(=O)C(CCCN=C(N)N)NC(=O)C(CC(C)C)NC(=O)C(Cc1cn(Cc2ccccc2)cn1)NC(=O)C(Cc1ccc(O)cc1)NC(=O)C(CO)NC(=O)C(Cc1c[nH]c2ccccc12)NC(=O)C(Cc1cnc[nH]1)NC(=O)C1CCC(=O)N1 (stereo not given),·,3,·,-4.2,·
O=C(NC1=NCCS1)C1CC(=O)N(c2ccc(F)cc2)C1 (stereo not given),-12%,?,0,1.5,4
CCC(OC(=O)c1nsc(Cl)c1Cl)C(=O)NCC1CCCO1 (stereo not given),·,4,·,-1.9,·
O=C(N/N=C/c1ccccc1OCc1ccccc1)c1cccs1,5%,3,-16,-0.1,-7
Cc1nc(NC(=O)CSc2ccccc2N)sc1C,-8%,-4,-34,-2.0,-1
CCOc1ccc(Nc2cc(C)nc(-n3nc(C)cc3C)n2)cc1,?,91,-12,5.3,-1
C1=C(c2ccccc2)Nc2nnnn2C1,3%,11,-25,-60,9
CC(=O)c1ccc2c(c1)c1ccccc1n2CC(C)C,2%,7,-16,11,-8
N/C(=N\OC(=O)c1ccccc1[N+](=O)[O-])c1ccccn1,6%,5,·,-2.2,-3
Fc1ccc(CNn2cnnc2SCc2ccc(F)cc2)cc1,0%,-8,-10,·,6
O=C(CN1CCOCC1)Nc1nc(-c2ccc(Cl)cc2)cs1,·,4,·,1.5,·
Clc1cccc(Cl)c1CSc1nnc([C@@H]2CCCN2)o1,-6%,6,·,1.6,·
CCc1c(C)nc2ncnn2c1N1CCC(C(=O)Nc2ccccc2)CC1,-1%,0,-55,0.6,0
CC(=O)N1CCN(C(=O)c2ccc(OC3CCN(Cc4ccccn4)CC3)cc2)CC1,·,-2,·,3.0,·
COc1ccc(C(=O)NNC2CC(=O)N(Cc3ccc(Cl)cc3)C2=O)cc1OC (stereo not given),-5%,1,-16,-2.4,-8
COc1cccc(NC(=O)Nc2cc(C(=O)O)ccc2N2CC3CC(C2)c2cccc(=O)n2C3)c1 (stereo not given),·,1,·,-2.1,·
CCCC(=O)Nc1ccc(Br)c(Cl)c1,?,94,-21,1.6,-6
